High-throughput results from PubChem.
2A firefly: FMDV 2A StopGo reporter, firefly signal | HEK cells with a luciferase reporter of 2A StopGo recoding | Potency, µM (highest dose often 57.5 µM), for inactives: at the highest dose signal change, negative = less light | 120,000 tested, 0.23% active | AID 1745856; active = well fitted falling curve with a large enough effect; inconclusive = small, poorly fitted or top-dose-only effect; inactive = no such curve, though single readings can be large or run the other way; further: nearly all actives have a fitted effect of over 60% in size; overnight with compound
2A Renilla: FMDV 2A StopGo reporter, Renilla signal; HEK cells with a luciferase reporter of 2A StopGo recoding; Potency, µM (highest dose often 57.5 µM), for the others: at the top dose signal change, negative = less light; 120,000 tested, 0.32% active; AID 1745857; active means well fitted falling curve with a large enough effect; inconclusive means small, poorly fitted or top-dose-only effect; inactive means no such curve, though single readings can be large or run the other way; further: nearly all actives have a fitted effect of over 55% in size; overnight with compound
* marks the source's active call; other numbers are inactive results; ? = inconclusive; [ ] = remark or other dose. On the % scale 0 is the no-effect control and ±100 the full control effect; potency means the concentration at half of the fitted maximal effect. These rows are one share of the data. The share of hits here may be higher or lower than overall.

SMILES	2A firefly	2A Renilla
O=C(/C=C/c1ccc2ccccc2c1)c1ccccc1	0%	-5%
CN(CCS(=O)c1ccccc1)Cc1ccc2c(c1)OCCO2 (stereo not given)	0%	27%
COc1ccc(CN2CCN(C(=O)Nc3ccc(C)cc3)CC2)c(OC)c1OC	79%[activator]	1%
Cc1ccc(NC(=O)C(=O)NCC(c2cccnc2)N2CCOCC2)cc1C (stereo not given)	-12%	-18%
O=C(O)c1ccc(C2C(c3ccccc3)=C(O)C(=O)N2c2ccc(Cl)cc2)cc1 (stereo not given)	15%	26%
CCCCCCCCCCOC(=O)CSC(=S)N(C)C	5%	13%
O=c1ccc(-c2ccccc2)nn1Cc1ccc(F)cc1Cl	-3%	2%
COc1ccc(-c2nc(C)c(CCNC(=O)c3c(F)cccc3F)s2)cc1	202%[activator]	13%
Cc1csc(SCc2cc(=O)oc3cc4c(cc23)CCC4)n1	169%[activator]	25%
CC1Cc2ccccc2N1C(=O)c1nn(C(C)C)c(=O)c2ccccc12 (stereo not given)	-6%	5%
CCOc1ccc(CC(=O)Nc2cccc3cccnc23)cc1	111%[activator]	26%
Cc1c(NC(C)C)c(=O)n(-c2ccccc2)n1C	-9%	-5%
CC(C)COc1ccc(C(=O)N2CCCCC2CCN2CCCCC2)cc1 (stereo not given)	-21%	-8%
O=C(NC1CCS(=O)(=O)C1)c1cc2cc(F)ccc2[nH]1 (stereo not given)	22%	0%
CC(C)c1ccccc1NC(=O)COC(=O)c1ccc2ccccc2n1	13%	-15%
CC(=O)Nc1ccc(SCCS(=O)c2ccccc2)cc1 (stereo not given)	3%	13%
Cc1c(S(=O)(=O)c2ccc(Br)cc2)nnn1-c1ccc(Br)cc1	17%	17%
CCOc1ccc(NC(=O)CSc2ncc(-c3ccc(F)cc3)o2)cc1	2%	-14%
OCc1nc2ccccc2n1CC(O)COc1ccccc1F (stereo not given)	23%	-5%
CCCCCn1nc(C(=O)Nc2cccc(Br)c2)c2ccccc2c1=O	7%	0%
Cc1ccc(NC(=O)C(C#N)=C2CCCCCCC2)cc1	109%[activator]	18%
Cc1ccc(NS(=O)(=O)c2ccc(F)cc2F)cc1S(N)(=O)=O	-5%	19%
Cc1cc(NCc2ccccn2)n2nc(C(F)(F)F)c(-c3ccc(Cl)cc3)c2n1	2%	1%
CC(C)C(NC(=O)c1n[nH]c(=O)c2ccccc12)c1ccc(F)cc1 (stereo not given)	-10%	-5%
Cn1c(=O)c2c(nc(NCCc3ccc(F)cc3)n2Cc2ccc(F)cc2)n(C)c1=O	-1%	-9%

Later entries
SMILES	2A firefly	2A Renilla
Cc1ccc(-c2cnc(CCC(=O)NCc3ccc(F)c(C)c3)o2)cc1	18%	5%
CC(Oc1cccc(Cl)c1)C(=O)Nc1ccc(S(N)(=O)=O)cc1 (stereo not given)	14%	12%
CCN1CCN(C(=O)CCCn2nc(C)c3c(C)n(-c4ccc(C)cc4)nc3c2=O)CC1	-11%	-13%
Cc1ccc(N(C)S(=O)(=O)c2cc3c(cc2Cl)Oc2ccc(C)cc2NC3=O)cc1	-18%	6%
COc1ccc2c(COC(=O)CCCN=C3NS(=O)(=O)c4ccccc43)cc(=O)oc2c1	-2%	-10%
COc1ccc(-c2cc3ccccc3c(=O)o2)cc1	10%	0%
COc1ccc(-c2cc(-c3nc(-c4ccccc4)no3)[nH]n2)c(OC)c1	36%[activator]	8%
Oc1ccc(C=NCCc2ccccc2)cc1	20%	7%
Cn1nc(C(=O)OCC(=O)Nc2cccc3ccccc23)c2ccccc2c1=O	-11%	-10%
O=C(Nc1cccc(C(=O)OCc2cc(=O)n3nc(C4CC4)sc3n2)c1)c1ccccc1	1%	8%
Fc1ccc(Oc2nc(-c3ccccn3)nc3ccccc23)cc1	-10%	?
COc1ccc(OC)c(NC(=O)CSC2=Nc3ccccc3C3=NC(CC(=O)NCc4ccco4)C(=O)N23)c1 (stereo not given)	-21%	2%
Cc1c(Cl)cccc1NC(=O)CCS(=O)(=O)c1ccc2c(c1)CC(C)N2C(=O)C1CC1 (stereo not given)	-13%	?
O=C(COc1cc(O)c2c(=O)cc(-c3ccccc3)oc2c1)N1CCCCC1	1%	-2%
COc1ccc(CN2C(=O)c3ccccc3C2C(=O)NCCc2ccccc2)c(OC)c1 (stereo not given)	-14%	69%[activator]
COC(=O)C1=C(C)N(C2CCCC2)C(=O)C1(NC(C)=O)C(F)(F)F (stereo not given)	3%	-7%
CC(C)c1ccc(C(=O)NCCc2c[nH]c3ccccc23)cc1	166%[activator]	5%
COc1ccc(-c2cc(C(=O)NC3CCCC3)c3ccccc3n2)cc1	63%[activator]	11%
CCCCc1ccc(NC(=O)CC)cc1	121%[activator]	6%
COc1ccc(CCNC(=O)CN2C(=O)COc3ccc(S(=O)(=O)N4CCCC4)cc32)cc1OC	11%	6%
O=C(CN1C(=O)C(c2ccc(F)cc2)=NC12CCCCCC2)Nc1ccc(F)c(Cl)c1	-6%	-12%
COC(=O)c1cc(S(N)(=O)=O)ccc1OC	-8%[11.5 µM]	2%
COc1ccccc1-c1cc(C(=O)N2CCN(c3ccccc3)CC2)no1	0%	3%
CCc1ccccc1NC(=O)c1cnn2c(C(F)(F)F)cc(-c3ccc(OC)c(OC)c3)nc12	5%	-10%
COc1ccc(C2c3c(n(C)c4ccccc34)C(=O)N2CC(=O)Nc2ccc(C)cc2Cl)cc1 (stereo not given)	-17%	-3%

Compound profiles, from the list above. Order of screens: 2A firefly, 2A Renilla
Cc1c(S(=O)(=O)c2ccc(Br)cc2)nnn1-c1ccc(Br)cc1 reads 17%, 17%
Fc1ccc(Oc2nc(-c3ccccn3)nc3ccccc23)cc1 reads -10%, ?
CC(Oc1cccc(Cl)c1)C(=O)Nc1ccc(S(N)(=O)=O)cc1 (stereo not given) reads 14%, 12%
CC(C)COc1ccc(C(=O)N2CCCCC2CCN2CCCCC2)cc1 (stereo not given) reads -21%, -8%
Cc1ccc(NC(=O)C(C#N)=C2CCCCCCC2)cc1 reads 109%[activator], 18%

Random excerpt: seven entries already listed
SMILES	2A firefly	2A Renilla
Cc1ccc(NC(=O)C(=O)NCC(c2cccnc2)N2CCOCC2)cc1C (stereo not given)	-12%	-18%
O=c1ccc(-c2ccccc2)nn1Cc1ccc(F)cc1Cl	-3%	2%
COc1ccc(-c2cc3ccccc3c(=O)o2)cc1	10%	0%
Cc1c(S(=O)(=O)c2ccc(Br)cc2)nnn1-c1ccc(Br)cc1	17%	17%
OCc1nc2ccccc2n1CC(O)COc1ccccc1F (stereo not given)	23%	-5%
Cc1ccc(NS(=O)(=O)c2ccc(F)cc2F)cc1S(N)(=O)=O	-5%	19%
CC(C)C(NC(=O)c1n[nH]c(=O)c2ccccc12)c1ccc(F)cc1 (stereo not given)	-10%	-5%

Further compounds.
SMILES	2A firefly	2A Renilla
CCC(NC(=O)c1ccc(OC)cc1)c1ccccc1OC(F)F (stereo not given)	14%	4%
Cc1c(NC(=O)Nc2ccc(F)c(Cl)c2)c(=O)n(-c2ccccc2)n1C	-19%	-1%
Cc1ccc(-n2c(SCC(N)=O)nc3c(c2=O)C2(CCCC2)Cc2ccccc2-3)cc1	?	?
O=C(c1ccco1)N1N=C(c2ccc(Br)cc2)CC1c1ccc2nccnc2c1 (stereo not given)	9%	-20%
Cc1cc2cc(N)ccc2[nH]1	73%[activator]	9%
Cc1ccc(C)c(NC(=O)N2CCN(c3nnc(C)c4c(C)n(-c5ccccc5)nc34)CC2)c1	-13%	12%
CCONC(=O)C(C)Sc1cc(Cl)ccc1Cl (stereo not given)	29%	8%
Cc1ccccc1C(=O)NC(NC(=O)c1ccccc1C)c1ccc(Cl)cc1	-3%	20%
CCn1c(SCc2ccc(Cl)cc2Cl)nc2c1c(=O)n(C)c(=O)n2C	-1%	-8%
COc1ccc(S(=O)(=O)N(CCc2ccccc2)CC(=O)Nc2cc(C)cc(C)c2)cc1OC	-20%	0%
Cc1cc(C(=O)OCC(=O)NC(C)C)c2ccccc2n1	1%	-5%
COc1ccc(C(=O)N(c2ccc(C)cc2)S(=O)(=O)c2ccc(C)cc2)cc1	0%	103%[activator]
CCOc1ccc(CCNC(=O)c2ccc3c(c2)N(Cc2ccc(C)cc2)CCS3)cc1	27%	85%[activator]
CC(C)c1ccc2oc(-c3ccc(NC(=O)c4ccc([N+](=O)[O-])o4)cc3)nc2c1	193%[activator]	17%
CC(=O)c1ccc(OCc2ccccc2C)cc1	355%[activator]	0%
Cc1ccc(N(CC(=O)NCc2ccc(F)cc2)S(=O)(=O)c2c(C)nn(C)c2C)cc1	41%[activator]	53%[activator]
CCN1CCN(c2oc(-c3ccc(OC)c(OC)c3)nc2C#N)CC1	24%	16%
O=C(CSc1ncc(-c2ccccc2)[nH]1)Nc1cccc(Br)c1	53%[activator]	16%
COc1ccccc1CNC(=O)c1ccc2noc(-c3ccccc3)c2c1	8%	1%
CN(C(=O)c1cc2cccc([N+](=O)[O-])c2[nH]1)C1CCCCC1	165%[activator]	-12%
COc1cc(CNC(=O)c2cc(C3CC3)nc3onc(C)c23)cc(OC)c1OC	-5%	-1%
CCOC(=O)C1CCCN(C(=O)Cn2ncc3c4ccccc4n(Cc4ccccc4)c3c2=O)C1 (stereo not given)	16%	1%
CCCCOC(=O)c1ccc(Nc2ncnc3[nH]ncc23)cc1	12%	?
CN(C)c1cccc(C(=O)Nc2ccc(Nc3ccccc3)cc2)c1	103%[activator]	?
O=C(CC1N=C2c3ccccc3N=C(SCC(=O)Nc3cccc(C(F)(F)F)c3)N2C1=O)NCc1cccs1 (stereo not given)	-19%	2%

More compounds follow:
SMILES	2A firefly	2A Renilla
CCN(CC)CCCNC(=O)CN1N=C(c2ccc(OC)cc2)CCC1=O	-4%	-13%
Cc1cc(O)c2c(C)c(CC(=O)NCc3ccc(F)cc3)c(=O)oc2c1	22%	0%
O=C(CN1CCSc2ccccc21)N1CCN(c2ccc(F)cc2)CC1	10%	4%
COc1ccc(Br)cc1CN1C(=O)c2ccccc2C1C(=O)NC1CCCCCC1 (stereo not given)	-1%	-9%
COC(=O)c1c(SC)nc2ccccc2c1OCc1ccc(Cl)cc1	-2%	-9%
COc1ccc(-c2nc(Nc3cc(F)ccc3F)c3ccccc3n2)cc1	133%[activator]	16%
CC(Sc1ncnc2nc[nH]c12)C(=O)NCCc1c[nH]c2ccc(Cl)cc12 (stereo not given)	-7%	-7%
CCc1ccc(OCC(=O)N2CCN(CCc3ccncc3)CC2)cc1	61%[activator]	-18%
Cc1[nH]c(=O)nc(SCC(=O)Nc2ccc(F)cc2Cl)c1C#N	-16%	-21%
OC(CC#CCN1CCCCCC1)(c1ccccc1)c1ccccc1	13%	2%
O=C(CSc1nccn2nc(-c3cccc4ccccc34)cc12)NCCc1ccccc1	49%[activator]	4%
CC(C)OCc1cccc(CNC(=O)C2CCCC2)c1	112%[activator]	19%
C[C@@]12C[C@@H]3C(=O)N(Cc4ccccc4)CC(=O)N3[C@@H]1N(S(=O)(=O)c1ccccc1)c1ccccc12	9%	72%[activator]
O=C(NCCc1ccccc1)c1cc(-c2ccc(Cl)c(Cl)c2)on1	31%	20%
CSc1nnc2c(n1)OC(c1ccccc1F)N(C(C)=O)c1ccccc1-2 (stereo not given)	11%	8%
COc1ccc(C(=O)NCC(c2ccc(N(C)C)cc2)N2CCCC2)c(OC)c1 (stereo not given)	-14%	-10%
CCCCNc1nc2c(S(=O)(=O)c3ccc(C)cc3)nnn2c2ccsc12	-15%	9%
CCOC(=O)c1nnn(CC(=O)NC(=O)Nc2ccccc2F)c1C(=O)OCC	22%	10%
COc1ccc(-c2nc3ccccc3c(C)c2CC(=O)O)cc1OC	-2%	-1%
Cc1ccc(CN(C)C(=O)Cn2c(=O)n(C)c3ccccc32)cc1	88%[activator]	1%
Cc1ccccc1Cn1c2ccccc2c2cnn(CC(=O)N3CCC(C)CC3)c(=O)c21	-11%	-16%
COc1ccc2c(-c3cc4cc(Cl)ccc4o3)cc(=O)oc2c1	11%	8%
NC(=O)c1ccc(CN(Cc2cccs2)C2CC2)cc1	9%	6%
CC(C)(C)NC(NC(=O)c1ccccc1Cl)C(Cl)(Cl)Cl (stereo not given)	4%	21%
Cc1ccc(C(=O)Nc2c(C)nc3ccccn3c2=O)cc1C	102%[activator]	3%

The results go on.
SMILES	2A firefly	2A Renilla
CCc1nn2c(=O)c(S(=O)(=O)Nc3ccc(Br)cc3F)c(C)nc2s1	-18%	45%[activator]
CCOc1ccc(C(=O)NCCn2cc(SCC(=O)Nc3ccccc3)c3ccccc32)cc1	-1%	57%[activator]
CN(Cc1ccccc1)C(=O)CN1C(=O)CSc2ccc(S(=O)(=O)N3CCOCC3)cc21	-15%	-5%
O=C1CC(C(=O)Nc2ccc(F)cc2)c2ccc(F)cc2N1 (stereo not given)	0%	-7%
CCCCNC(=O)CCn1nc(-c2ccc(Cl)cc2)c2ccccc2c1=O	-7%	15%
Cc1c2cnn(-c3ccccc3)c(=O)c2c(C)n1CCCC(=O)Nc1cccc(F)c1	-14%	-22%
O=C1CC(c2ccccc2F)c2ncn(-c3ccccc3F)c2N1 (stereo not given)	178%[activator]	18%
COc1ccc(C(=O)/C(C#N)=C\c2ccccc2OC(F)F)cc1	-5%	8%
Cc1ccc2scc(N3CCC(C)CC3)c(=O)c2c1	113%[activator]	22%
COc1ccc(Cl)cc1NC(=O)c1cc(C)nc2c1c(C)nn2-c1ccccc1	5%	-11%
Cc1ccc(NC(=O)Cn2nc3c(cc2=O)CCCC3)cc1Cl	-17%	-16%
